# Assay outcomes from PubChem BioAssay.
# Six1-Eya2 inh = qHTS Assay for Inhibitors of the Six1/Eya2 Interaction | Homeobox protein SIX1 (Homo sapiens) + Protein phosphatase EYA2 (Homo sapiens), … | AlphaScreen GST-Six1/His-Eya2 binding, biochemical; stronger effect = lower value; control for the full effect not named in the record | activity change, % (concentration not given with the values) | hit rate 0.56% among 360,000 | AID 651725, 2012; in the data active = activity change below about -65%; inconclusive = about -30% to -65%; inactive = above about -30%; further: on the % scale 0 is the no-effect control and ±100 the full control effect
# Target sequence (O00167 whole entry, looked up): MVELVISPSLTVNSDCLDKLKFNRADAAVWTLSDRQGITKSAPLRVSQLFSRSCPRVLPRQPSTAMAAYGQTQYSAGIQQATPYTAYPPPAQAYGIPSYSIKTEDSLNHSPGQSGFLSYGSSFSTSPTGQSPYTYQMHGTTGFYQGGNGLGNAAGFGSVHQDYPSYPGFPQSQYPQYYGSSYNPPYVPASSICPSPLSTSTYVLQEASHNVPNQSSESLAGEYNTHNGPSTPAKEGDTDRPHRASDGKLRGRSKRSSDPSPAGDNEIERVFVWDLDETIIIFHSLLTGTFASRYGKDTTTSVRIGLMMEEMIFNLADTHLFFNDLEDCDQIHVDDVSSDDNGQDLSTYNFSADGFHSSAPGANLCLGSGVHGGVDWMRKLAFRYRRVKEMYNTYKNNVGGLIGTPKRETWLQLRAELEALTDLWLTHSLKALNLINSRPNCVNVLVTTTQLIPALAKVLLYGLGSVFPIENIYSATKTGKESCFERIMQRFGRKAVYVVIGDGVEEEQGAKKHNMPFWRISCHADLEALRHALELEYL
# Target sequence (Q15475 whole entry, looked up): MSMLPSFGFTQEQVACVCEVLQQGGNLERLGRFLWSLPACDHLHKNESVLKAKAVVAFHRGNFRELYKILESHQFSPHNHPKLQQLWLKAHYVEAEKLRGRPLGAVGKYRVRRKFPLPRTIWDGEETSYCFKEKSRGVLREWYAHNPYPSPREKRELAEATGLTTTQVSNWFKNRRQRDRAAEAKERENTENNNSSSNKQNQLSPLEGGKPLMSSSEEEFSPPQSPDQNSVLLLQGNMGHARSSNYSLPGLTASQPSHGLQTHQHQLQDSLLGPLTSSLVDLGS
#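 Compounds are tested against tagged Six1 and Eya2 proteins bridged by glutathione donor and nickel acceptor beads; after a one-hour incubation at 37 °C without light, AlphaScreen emission is recorded.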
# D2 agonist = Beta-Arrestin HTS for Positive Allosteric Modulators of the Human D2 Dopamine Receptor: Agonists; hit rate 0.084% among 360,000; DiscoveRx PathHunter D2 beta-arrestin, luminescence, 90 min; 100% = 57 uM dopamine signal; activation, % (concentration not given with the values); D(2) dopamine receptor (Homo sapiens), P14416; in the data active = activation above about 40%; inconclusive = about 15% to 40%; inactive = below about 15%; further: compound concentration not given in the record; the text of the record calls up to 30% inactive
#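 Agonist mode: compounds alone added to overnight-plated D2 PathHunter cells for 90 min at 37 C, with 57 uM final dopamine (EC100) defining full response. Beta-arrestin recruitment detected by chemiluminescent reagent, read after 1 h at ambient temperature.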
# D2 PAM = Beta-Arrestin HTS for Positive Allosteric Modulators of the Human D2 Dopamine Receptor: Potentiators; DiscoveRx D2 beta-arrestin cells, luminescence, 90 min; 100% = 57 uM dopamine signal; potentiation, % (test concentration not listed); D(2) dopamine receptor (Homo sapiens), P14416; AID 624464, 2012; hit rate 0.23% among 360,000; active = potentiation of 50% or more; inconclusive = 30% to 50%; inactive = 30% or less;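 further: compound concentration not given in the record; tested on top of an EC20 dose of dopamine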
#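 PathHunter beta-arrestin assay in DiscoveRx D2 cells. Compounds were added with an EC20 of dopamine (50 nM final) for 90 min at 37 deg C. Luminescence was read 1 h after detection reagent, with 57 uM dopamine as the EC100 control.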
# TRPV1 PAM = HTS Assay for Compounds that Act as Potentiators of the Vanilloid Receptor 1 | potentiation, % at 8.33 µM | Transient receptor potential cation channel subfamily V member 1 (Homo sapiens), Q8NER1 | AID 540277, 2011 | hit rate 0.02% among 320,000 | TRPV1-expressing cells, Fluo-8 calcium influx, capsaicin EC20 potentiation; host cell line not named in the record; control for the full effect not named in the record; active means potentiation above 80%; inconclusive means 30% to 80%; inactive means below 30%; further: 0% is about no effect
#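 Fluo-8 calcium influx in TRPV1-expressing cells, kinetic read (ex 480/em 520 nm). Compound added and read 3 min for agonist activity, followed by capsaicin at EC20 final and 2 min further read for enhancement.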
# CtBP-E1A inh = qHTS Assay for Inhibitors of the CtBP/E1A Interaction; activity change, % (test concentration not listed); hit rate 0.49% among 340,000; AlphaScreen GST-E1A/His-CtBP binding, 1536-well; stronger effect = lower value; control for the full effect not named in the record; in the data active means activity change below about -65%; inconclusive means about -30% to -65%; inactive means above about -30%; further: on the % scale 0 is the no-effect control and ±100 the full control effect; compound concentration not given in the record
#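 GST-E1A and His-tagged CtBP (125 nM each as 5X stock) were preincubated with pin-transferred compound for 2 h at 37 °C in the dark, then glutathione donor and nickel acceptor beads were added for 1 h before AlphaScreen reading.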
# Sfp inh = qHTS Assay for Inhibitors of Bacillus subtilis Sfp phosphopantetheinyl transferase (PPTase); 4'-phosphopantetheinyl transferase ffp (Bacillus subtilis), Q9F4F7; Biochemical Sfp PPTase activity, qHTS; Potency, µM, for inactives: max response, negative = inhibition, most hits filed as inhibitors; hit rate 3.5% among 310,000; active means well fitted inhibition curve with a large enough effect; inconclusive means small, poorly fitted or top-dose-only effect, or another doubt; inactive means no such curve, though single readings can be large or run the other way;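 further: the enzyme is Sfp with the accession as filed and its product quenches rhodamine fluorescence; potency means the concentration at half of the fitted maximal effect; 0% = enzyme reaction without inhibitor and -100% = no enzyme wells; top concentration of the series not given in the record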
#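 Sfp 15 nM + cpd, 15 min RT; start w/ rhodamine-CoA 5 uM, BHQ-2-YbbR 12.5 uM (final); 50 mM Hepes pH 7.6, 10 mM MgCl2, 0.01% NP-40, 0.01% BSA; read 525/598 nm at 0 and 30 min.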
# PINK1 expr mod = A Quantitative High throughput Screen to Identify Chemical Modulators of PINK1 Expression; PINK1 immunofluorescence, high-content cytometry, 24 h; Potency, µM (series often up to 76.6 µM), for inactives: at the top dose activation (PINK1 increase), most hits filed as activators; hit rate 0.2% among 410,000; active = well fitted activation curve with a large enough effect; inconclusive = small, poorly fitted or top-dose-only effect; inactive = flat fitted curve, though single readings scatter; cell line not stated here;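 further: potency means the concentration at half of the fitted maximal effect; % of control where 0% means no effect; nearly all actives have a fitted effect of over 65% in size; a mitochondrial uncoupler was the plate control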
#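 Decision-based qHTS: stable cells, 24 h exposure to five compound concentrations, CCCP as control. Fixed cells stained for PINK1 plus nuclear, mitochondrial and cell markers, cytometer read.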
# Numbers without * were called inactive; u = inconclusive; x = no result given; & = joins results of further samples; [ ] = remark or other dose.
SMILES,Six1-Eya2 inh,D2 agonist,D2 PAM,TRPV1 PAM,CtBP-E1A inh,Sfp inh,PINK1 expr mod
C[C@H]1CN([C@@H](C)CO)C(=O)CCCn2nncc2CO[C@@H]1CN(C)S(=O)(=O)c1ccccc1,-6.5,-1.2,1.3,x,3.0,x,-0.3%
Cc1ccc(-c2nc3sc4c(N)ncnc4c3c3c2CCCC3)cc1,19.6,-2.4,7.6,-2.7,0.0,19.6%,x
O=c1oc2ccccc2c(N2CCOCC2)c1[N+](=O)[O-],5.9,-4.4,-11.0,-21.6,3.1,20.5%,-0.7%
Cc1ccc(S(=O)(=O)NNC(=O)c2cc3cc4ccccc4nc3s2)cc1,-19.7,0.3,5.7,x,-16.7,-8.7%,2.1%
Cc1cccc(NC(=O)c2nc[nH]c2C(=O)NC[C@H](C)O)c1,-10.4,-4.2,0.2,x,2.1,x,1.7%
O=C(Nc1ccon1)c1ccc(Cl)c(S(=O)(=O)N2CCCCC2)c1,-27.9,-1.1,-10.9,-9.8,-0.2,19.6%,2.9%
CCN(CC(=O)Nc1c(F)cccc1F)C(=O)c1ccc2ncsc2c1,2.6,1.7,-5.2,8.3,2.5,x,-6.0%
CCOc1ccc(NC(=O)CC2C(=O)N(c3ccc(OC)cc3)C(=S)N2Cc2ccccn2)cc1 (stereo not given),-3.9,3.5,1.2,2.1,-7.6,5.3%,3.9%
C/C(=N\NC(=O)c1cccc([N+](=O)[O-])c1)c1ccncc1,-2.5,0.6,-22.0,3.4,0.0,-2.3%,-0.7%
Cc1cccc(-n2cnc(C(=O)N/N=C/c3ccccc3)c2)n1,-3.2,-3.3,0.7,-14.2,-0.7,7.6%,13.0%
COc1ccc([N+](=O)[O-])cc1NC(=O)C(C)OC(=O)CSC(C)C(=O)Nc1cc(C)on1 (stereo not given),-7.8,-6.7,-23.7,-14.3,1.6,x,-0.8%
C=CCNC(=O)CN(Cc1ccccc1)S(=O)(=O)c1ccc(C)cc1,10.8,1.4,-14.8,-31.5,-23.1,7.4%,-0.8%
COc1cccc(CN2CC(C(=O)N3CCN(c4ccc(Cl)cc4)CC3)CCC2=O)c1 (stereo not given),-7.4,-2.7,2.0,u,5.6,-0.6%,0.4%
Cc1cc(OC(C)C)c2c(-c3ccccc3)cc(=O)oc2c1,3.5,-0.7,-5.3,-11.6,11.3,-17.0%,18.3%
Cc1nc(Cc2nnc(SCC(=O)N(C)c3ccccc3)o2)cs1,12.8,-5.6,3.3,0.9,7.0,x,-1.7%
COc1ccc(CCNC2=NCCS2)cc1OC,3.4,-0.5,-14.5,-11.8,2.2,8.7%,1.1%
CCC(Sc1ncnc2c1nnn2-c1ccc(F)cc1)C(=O)OC (stereo not given),-3.8,-3.9,-6.9,-9.6,6.6,10.6%,-0.4%
CCC(CC)c1nnc(NC(=O)CS(=O)(=O)Cc2ccccc2)s1,0.1,0.5,8.9,x,4.1,x,2.3%
O=C(COc1ccc(Cl)cc1Cl)N(c1ccccn1)C1CCCCC1,-2.9,-8.3,-6.4,-7.8,-9.4,-3.5%,u
CC1CCc2c(sc(NC(=O)c3ccccc3C(=O)O)c2C#N)C1 (stereo not given),4.8,-5.3,1.8,-0.5,-8.9,-14.8%,2.4%
CC(C)CC(NC(N)=O)C(=O)NCc1ccc(Cl)cc1 (stereo not given),3.0,5.4,-9.6,7.6,0.2,1.7%,1.5%
Cc1cc(OC(C)C(=O)NCC2CCC(C(=O)O)CC2)c2c(C)cc(=O)oc2c1 (stereo not given),4.0,-4.1,-23.4,21.1,4.7,19.4%,0.5%
COc1ccc(/C=N/NC(=O)c2[nH]nc3c2CCc2ccccc2-3)cc1OC,-3.3,-1.0,-2.2,-5.2,6.0,-20.2%,6.6%
COc1ccc(NS(=O)(=O)c2cccc(NC(=O)CCS(=O)(=O)c3ccccc3)c2)cc1,7.3,1.3,-1.6,3.2,11.8,-2.7%,0.5%
O=C(Nc1ccccc1)N1CCNCC1,4.9,-5.8,-8.7,4.2,-1.4,-4.9%,0.9%
CC(C)[C@H](NC(=O)C1CCN(S(=O)(=O)c2ccccc2)CC1)C(=O)NCc1ccco1,-0.1,-1.8,-1.5,28.7,4.9,9.4%,0.5%
Cc1cc(NC(=O)c2cc(-c3ccc(O)cc3)on2)no1,6.7,5.1,-6.5,-7.2,x,-9.1%,1.5%
Cc1ccc(CN2CC(C(=O)N3CCN(S(=O)(=O)c4cc(C)ccc4C)CC3)CC2=O)cc1 (stereo not given),-5.2,-2.9,6.5,15.1,-18.4,x,1.2%
CCN(CC)c1nc(C#N)nc(N(CC)CC)n1,14.5,-6.9,-4.8,-7.6,12.1,2.1%,14.0%&2.0%
O=C1c2ccccc2C(Nc2cccc(C(F)(F)F)c2)N1Cc1ccco1 (stereo not given),-3.2,-0.8,1.1,-12.6,-4.5,39.8µM*,-0.9%
O=C(O)c1ccccc1Cc1ccc(F)c2ccccc12,-8.9,-5.2,1.9,x,-0.2,x,1.7%
O=S(=O)(c1ccc(NC(=S)N/N=C/c2c3ccccc3cc3ccccc23)cc1)N1CCOCC1,-2.7,2.0,-11.5,10.1,x,-14.3%,u
O=C1CCCc2c1cc(C(=O)Nc1ccc(Cl)cn1)c(=O)n2-c1ccccc1,0.8,2.2,29.5,3.7,-0.6,-8.1%,0.1%
COCCCN1C(=O)C(=O)/C(=C(/O)c2ccc(S(=O)(=O)N3CCOCC3)cc2)C1c1ccc(C)cc1 (stereo not given),-8.7,-5.6,10.6,8.1,11.6,-8.5%,-1.6%
COc1ccc(CCNC(=O)C2c3ccccc3C(=O)N2CCC(C)C)cc1OC (stereo not given),3.5,6.2,0.7,19.5,8.9,-6.5%,-1.0%
CCOc1cc(NC(=S)NCCCN2CCOCC2)c(OCC)cc1NC(=O)c1cccc(F)c1,-1.9,-1.0,-0.8,-9.1,-0.2,-10.3%,-1.3%
Cc1ccc(S(=O)(=O)N2CCOCC2)cc1C(=O)N(C)CCOc1ccc(Cl)cc1,5.2,-2.0,-3.5,-12.5,3.1,-10.9%,3.5%
O=C1/C(=C\c2ccc([N+](=O)[O-])cc2)CS(=O)(=O)C/C1=C/c1ccc([N+](=O)[O-])cc1,u,-8.2,-26.5,x,7.1,x,-4.6%
c1ccc(-c2nnc(N3CCOCC3)nc2-c2ccccc2)cc1,-2.1,1.6,-14.9,-13.8,-9.2,1.9%,-1.0%[38.3 µM]
OCc1cc(CO)c(O)c(CCc2ccccc2)n1,3.2,-3.1,-7.6,8.8,0.4,4.4%,-0.4%
O=[N+]([O-])CC(c1ccccc1)P(=O)(c1ccccc1)c1ccccc1 (stereo not given),1.7,-0.9,5.4,6.1,-3.0,1.4%,-2.3%
COCCn1c(C)cc(C(=O)COC(=O)CCN2C(=O)c3ccccc3C2=O)c1C,-8.4,0.0,-3.5,u,-10.2,4.3%,-0.2%
O=C(COC(=O)c1ccc(Cl)c([N+](=O)[O-])c1)NC1CCCC1,0.0,1.2,-4.4,19.8,4.7,8.5%,-0.8%
CCOC(=O)c1cccc(NC(=O)CCn2nc(C)c(S(=O)(=O)N3CCCCC3)c2C)c1,-15.2,-0.7,-27.9,-21.4,-13.8,13.7%,-0.9%&1.8%
O=C(c1cccc(S(=O)(=O)NCc2ccc3c(c2)OCO3)c1)N1CCCC1,-1.7,-3.3,-0.5,-4.1,x,x,-1.4%
CCCCn1c(=O)[nH]c2nc3cc(N)ccc3nc2c1=O,u,-3.2,22.3,-31.7,-19.8,56.2µM*,-0.6%
Cc1ccc(NC(=S)N2CCOCC2)cc1,-7.7,1.6,-6.4,-7.4,2.2,25.4%,-1.2%
O=C1c2ccccc2C(=O)N1Nc1ccc([N+](=O)[O-])cc1[N+](=O)[O-],-6.6,-3.3,8.7,-2.9,-11.3,2.7%,9.1%
CCOC(=O)c1sc2nc3n(c(=O)c2c1C)CCCCC3,2.1,-2.2,8.9,-28.4,-2.2,5.5%,-2.1%
CC(C)C(=O)Nc1cccc(C(=O)Nc2ccccc2C(=O)O)c1,-1.5,1.9,3.2,3.9,-3.4,25.3%,-1.3%

# New compounds follow
SMILES,Six1-Eya2 inh,D2 agonist,D2 PAM,TRPV1 PAM,CtBP-E1A inh,Sfp inh,PINK1 expr mod
Cc1cc(OCCCN2CCC(C(O)(c3ccccc3)c3ccccc3)CC2)ccc1Br,-13.6,x,x,x,-0.8,x,-0.9%
COc1ccc(-c2cc(=O)oc3cc(OCC(=O)N4CCOCC4)ccc23)cc1,6.2,-0.1,-6.8,-6.0,-4.9,1.9%,1.4%
Cc1cc(OCC(=O)N2CCN(c3cccc(Cl)c3)CC2)c2c(C)c(C)c(=O)oc2c1,4.3,-4.3,-3.1,4.3,3.7,39.8µM*,-1.6%
O=S(=O)(/C=C/c1ccccc1)Nc1cccc(S(=O)(=O)NC2=NCCC2)c1,0.5,4.3,-2.7,-0.5,x,13.4%,0.4%
CCOC(=O)c1c(NC(=O)COC)sc(C(C)=O)c1C,-1.3,-0.1,0.0,-12.0,-2.3,0.9%,-1.2%[38.3 µM]
CCCCn1nc2cc(C(=O)N(CC)c3ccc(OC)cc3)ccc2c1OCC,1.4,1.2,-3.3,11.0,x,-4.6%,-0.5%
O=C(CSc1ncccc1C(=O)O)Nc1ccc2c(c1)OCCO2,3.5,-1.3,-7.7,-2.4,0.8,7.4%,-0.5%

# Reprinted at random: 4 entries already listed, in no set order.
SMILES,Six1-Eya2 inh,D2 agonist,D2 PAM,TRPV1 PAM,CtBP-E1A inh,Sfp inh,PINK1 expr mod
COc1ccc(-c2cc(=O)oc3cc(OCC(=O)N4CCOCC4)ccc23)cc1,6.2,-0.1,-6.8,-6.0,-4.9,1.9%,1.4%
Cc1cc(OCC(=O)N2CCN(c3cccc(Cl)c3)CC2)c2c(C)c(C)c(=O)oc2c1,4.3,-4.3,-3.1,4.3,3.7,39.8µM*,-1.6%
Cc1cc(OCCCN2CCC(C(O)(c3ccccc3)c3ccccc3)CC2)ccc1Br,-13.6,x,x,x,-0.8,x,-0.9%
O=C(CSc1ncccc1C(=O)O)Nc1ccc2c(c1)OCCO2,3.5,-1.3,-7.7,-2.4,0.8,7.4%,-0.5%
